Bioassay records (PubChem BioAssay)
KCNQ2 inh = KCNQ2 potassium channel inhibitors, primary screen, cell-based, CHO-K1, FluxOR thallium flux, B-score (AID 2156). B-score at 10 µM. hit rate 1.1% among 310,000. 20 min; hits give low values; only compounds with negative scores are shown here; some inactives read as strong as hits;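 active = fluorescence ratio B-score at most minus 3 library SDs, with starting brightness B-score within 2 library SDs, cut at about -5.5 in these data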
Target sequence (O88943 whole entry, looked up): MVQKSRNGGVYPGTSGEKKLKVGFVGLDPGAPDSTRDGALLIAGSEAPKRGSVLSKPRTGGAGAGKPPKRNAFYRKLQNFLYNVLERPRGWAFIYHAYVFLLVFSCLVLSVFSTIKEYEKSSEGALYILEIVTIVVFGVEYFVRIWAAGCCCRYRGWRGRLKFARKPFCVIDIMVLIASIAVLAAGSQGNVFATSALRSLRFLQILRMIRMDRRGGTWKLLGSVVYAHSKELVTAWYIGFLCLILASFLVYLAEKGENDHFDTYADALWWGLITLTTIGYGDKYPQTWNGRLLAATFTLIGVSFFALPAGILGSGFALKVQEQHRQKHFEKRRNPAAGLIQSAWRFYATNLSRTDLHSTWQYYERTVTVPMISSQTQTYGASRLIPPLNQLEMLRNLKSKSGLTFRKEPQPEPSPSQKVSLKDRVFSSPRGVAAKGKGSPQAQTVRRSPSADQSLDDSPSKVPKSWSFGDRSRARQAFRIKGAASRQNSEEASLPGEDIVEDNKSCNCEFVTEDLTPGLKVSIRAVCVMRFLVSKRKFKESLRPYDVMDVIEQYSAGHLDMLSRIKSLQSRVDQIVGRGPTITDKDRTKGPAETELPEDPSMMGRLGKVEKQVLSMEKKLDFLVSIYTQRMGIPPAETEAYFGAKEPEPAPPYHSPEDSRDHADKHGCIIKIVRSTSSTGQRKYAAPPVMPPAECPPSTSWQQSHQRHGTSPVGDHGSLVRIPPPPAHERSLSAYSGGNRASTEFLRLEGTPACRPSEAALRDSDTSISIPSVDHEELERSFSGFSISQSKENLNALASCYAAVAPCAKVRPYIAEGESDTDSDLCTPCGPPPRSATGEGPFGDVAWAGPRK
KCNQ2 inh baseline = recorded beside KCNQ2 inh, whose call it bears; B-score; measured here: initial fluorescence intensity artifact check;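 brightness before thallium and not channel activity; 0 = typical well and far values either way flag optical interference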
Numbers without * were called inactive. Some of the compounds tested (hit frequency here may not be typical).

For C/C(=N\Nc1cc(N2CCCCC2)nc(C)n1)c1ccc(Br)cc1 the results were KCNQ2 inh inactive and KCNQ2 inh baseline -0.05.
Screening CCc1cccc2c(-c3csc(=NC)n3C)c[nH]c12 returned KCNQ2 inh inactive and KCNQ2 inh baseline 0.01.
For CCOc1ccc2c(c1)nc(SCC(=O)c1cccs1)n2C the results were KCNQ2 inh inactive and KCNQ2 inh baseline 1.58.
`O=C(COc1ccc(S(=O)(=O)NCc2ccccc2)cc1Cl)NCc1ccncc1` gave KCNQ2 inh inactive and KCNQ2 inh baseline -1.2.
CCOC(=O)Cn1cnc(-c2ccc([N+](=O)[O-])cc2)c1 was read as KCNQ2 inh inactive and KCNQ2 inh baseline 0.73.
COc1cc(CNC2CCCC2)cc(OC)c1OC was read as KCNQ2 inh inactive and KCNQ2 inh baseline 1.33.
For Cn1cnc(S(=O)(=O)Nc2ccc(Cl)c(C(F)(F)F)c2)c1 the results were KCNQ2 inh inactive and KCNQ2 inh baseline 2.62.
For O=C1c2ccccc2C(Nc2ccc(S(=O)(=O)N3CCOCC3)cc2)N1c1ccccn1 (configuration not stated) the results were KCNQ2 inh inactive and KCNQ2 inh baseline 1.27.
Cc1cc(N2C(=O)C3CCC(c4ccccc4)CC3C2=O)no1 (configuration not stated) was read as KCNQ2 inh inactive and KCNQ2 inh baseline 0.1.
Screening Cc1ccnc(NC(=O)c2ccc(Cl)c(NC(=O)c3ccccc3C)c2)c1 returned KCNQ2 inh inactive and KCNQ2 inh baseline 0.7.
CCOC(=O)c1cnc2ccc(OCC)cc2c1NCCN1CCOCC1 was read as KCNQ2 inh inactive and KCNQ2 inh baseline 1.04.
For CCc1nnc(NC(=O)CSc2nnc(Cc3cccn3C)n2C)s1 the results were KCNQ2 inh inactive and KCNQ2 inh baseline 0.94.
O=C1N=NC2=C1c1c3ccccc3c(O)n1CC2 was read as KCNQ2 inh inactive and KCNQ2 inh baseline 1.87.
CCCc1cc(=O)oc2cc(C)cc(OC(C)C(=O)NCc3ccccn3)c12 (configuration not stated) was read as KCNQ2 inh inactive and KCNQ2 inh baseline 0.63.
For Cc1c(O)c2c3c(cccc3c1O)C(=O)N(c1ccccc1)C2=O the results were KCNQ2 inh inactive and KCNQ2 inh baseline 13.3.
CC1(NC(=O)N2CCOCC2)CCS(=O)(=O)C1 (configuration not stated) was read as KCNQ2 inh inactive and KCNQ2 inh baseline 0.68.
`O=C(NC1CCSc2ccccc21)c1cccc([N+](=O)[O-])c1` (configuration not stated) gave KCNQ2 inh inactive and KCNQ2 inh baseline 1.55.
`COc1ccc(Cl)cc1S(=O)(=O)NCc1cccs1` gave KCNQ2 inh inactive and KCNQ2 inh baseline 1.33.
For CCOC(=O)c1ccccc1Oc1c(F)c(F)nc(NCCO)c1F the results were KCNQ2 inh inactive and KCNQ2 inh baseline 1.1.
CCn1c(CSc2nnc(-c3ccncc3)n2C)nc2cc(C(=O)O)ccc21 was read as KCNQ2 inh inactive and KCNQ2 inh baseline 0.49.
Screening C=CCn1c(C23CC4CC(CC(C4)C2)C3)n[nH]c1=S returned KCNQ2 inh inactive and KCNQ2 inh baseline -0.01.
For N#CC(Sc1ccccn1)c1ccc(Cl)cc1Cl (configuration not stated) the results were KCNQ2 inh inactive and KCNQ2 inh baseline -0.01.
COc1ccc(S(=O)(=O)Nc2cccc(-n3cnnn3)c2)cc1OC was read as KCNQ2 inh inactive and KCNQ2 inh baseline 0.98.
CCOC(=O)c1sc(NC(=O)c2cccnc2)c(C#N)c1C was read as KCNQ2 inh inactive and KCNQ2 inh baseline -0.83.
For Cc1ccc(-c2noc(C3CCCN(S(=O)(=O)c4ccc5ccccc5c4)C3)n2)o1 (configuration not stated) the results were KCNQ2 inh inactive and KCNQ2 inh baseline -1.29.
For CN(C)/C=C(\C#N)C(=O)c1cccc(Oc2ccc(Br)cc2)c1 the results were KCNQ2 inh inactive and KCNQ2 inh baseline 0.1.
Screening O=C(NCCN1CCOCC1)C1CCC(CNS(=O)(=O)c2ccc(Cl)cc2)CC1 (configuration not stated) returned KCNQ2 inh inactive and KCNQ2 inh baseline 2.48.
Screening O=C1CC(C(=O)Nc2ncccn2)C(c2ccccc2)O1 (configuration not stated) returned KCNQ2 inh inactive and KCNQ2 inh baseline -0.66.
Screening CCOC(=O)Cc1csc(NC(=O)COc2ccccc2OC)n1 returned KCNQ2 inh inactive and KCNQ2 inh baseline 0.51.
`CN(Cc1ccccc1)C(=O)C(=O)c1cn(CC(=O)N2CCCC2)c2ccccc12` gave KCNQ2 inh inactive and KCNQ2 inh baseline 0.27.
Screening O=C(NC(=S)Nc1ccc(F)c([N+](=O)[O-])c1)c1ccccc1F returned KCNQ2 inh inactive and KCNQ2 inh baseline 1.3.
CCOC(=O)c1c(NC(=O)CSc2nnc(-c3cccnc3)o2)sc(C)c1C was read as KCNQ2 inh inactive and KCNQ2 inh baseline -0.24.
For CCN(CC)c1cc(C)c2cc(NC(=O)c3cccs3)ccc2n1 the results were KCNQ2 inh inactive and KCNQ2 inh baseline 0.38.
`Cc1ccc(-c2cc(-c3c(C)nn(C)c(=O)c3N)[nH]n2)cc1` gave KCNQ2 inh inactive and KCNQ2 inh baseline -0.23.
For C=CCNC(=O)CSc1nnc(-c2cccs2)o1 the results were KCNQ2 inh inactive and KCNQ2 inh baseline -0.13.
For N=C1/C(=C\c2ccc(OC(=O)c3ccco3)cc2)C(=O)N=C2SC=NN12 the results were KCNQ2 inh inactive and KCNQ2 inh baseline -0.85.
Screening COc1ccccc1C(CCNS(=O)(=O)c1ccc(C)cc1)c1ccco1 (configuration not stated) returned KCNQ2 inh inactive and KCNQ2 inh baseline 0.55.
`COc1ccc(-n2ccnc2SCC(=O)Nc2ccc(OC)cc2OC)cc1` gave KCNQ2 inh inactive and KCNQ2 inh baseline 0.17.
`CS(=O)(=O)N(Cc1ccccc1)c1ccc(C(=O)NN=C2CCCCCC2)cc1` gave KCNQ2 inh inactive and KCNQ2 inh baseline 1.2.
COc1ccc(CCN2C(=O)CC(C(N)=O)SC2=Nc2ccc(F)cc2)cc1OC (configuration not stated) was read as KCNQ2 inh inactive and KCNQ2 inh baseline 1.6.
NS(=O)(=O)c1ccc(-c2ccc(/C=N/NC(=O)c3ccc([N+](=O)[O-])cc3)o2)cc1 was read as KCNQ2 inh inactive and KCNQ2 inh baseline 2.04.
`CCN(CC)C(=O)CSc1nnc(-c2cnccn2)n1-c1ccc(C)cc1` gave KCNQ2 inh inactive and KCNQ2 inh baseline 0.15.
`Cc1cnn(-c2cc(N/N=C/c3ccccc3)ncn2)c1` gave KCNQ2 inh inactive and KCNQ2 inh baseline 1.14.
For COc1cccc(-c2nnc(SCc3nc4ccccc4s3)n2C)c1 the results were KCNQ2 inh inactive and KCNQ2 inh baseline -1.66.
`C=CCN1CN(S(=O)(=O)c2cccs2)c2nc3ccccc3nc21` gave KCNQ2 inh inactive and KCNQ2 inh baseline -0.88.
CCc1nc2ccc(C(=O)N3CCN(c4cccc(Cl)c4)CC3)cc2nc1CC was read as KCNQ2 inh inactive and KCNQ2 inh baseline 0.79.
For Cc1cc(C)c(OCCN2CC(C)OC(C)C2)c(Br)c1 (configuration not stated) the results were KCNQ2 inh inactive and KCNQ2 inh baseline 0.34.
O=C(O)CCc1ccc(-c2cccs2)n1-c1ccc(C(=O)O)cc1 was read as KCNQ2 inh inactive and KCNQ2 inh baseline 0.19.
`OC(COc1ccccc1)CN1CCN(C(c2ccccc2)c2ccccc2)CC1` (configuration not stated) gave KCNQ2 inh inactive and KCNQ2 inh baseline -0.09.
For COC(=O)c1ccccc1NC(=O)CSc1nc(Nc2ccccc2)nc(N2CCOCC2)n1 the results were KCNQ2 inh inactive and KCNQ2 inh baseline 0.53.
Screening O=C(NCCOc1ccccc1F)c1cccc(S(=O)(=O)N2CCN(c3ccccc3)CC2)c1 returned KCNQ2 inh inactive and KCNQ2 inh baseline -0.06.
Screening O=C1c2ccccc2CN1C(CO)Cc1ccccc1 (configuration not stated) returned KCNQ2 inh inactive and KCNQ2 inh baseline 0.99.
For CCOC(=O)CC(=O)CSc1nc(-c2cccnc2)cc(C)c1C#N the results were KCNQ2 inh inactive and KCNQ2 inh baseline 0.68.
Screening COc1cc2c(cc1OC)C(c1ccc(C)cc1)NC(=O)C2 (configuration not stated) returned KCNQ2 inh inactive and KCNQ2 inh baseline -0.01.
For Cc1cnc(NC(=O)c2ccc(-c3nc4ccccc4s3)o2)s1 the results were KCNQ2 inh inactive and KCNQ2 inh baseline 0.46.
Screening CCOC(=O)c1c(NC(=O)c2cccs2)sc(C)c1C returned KCNQ2 inh inactive and KCNQ2 inh baseline -0.24.
`Cc1cccc(/C=C2\Sc3ccc(C(=O)N4CCCCC4)cc3N(C)C2=O)c1` gave KCNQ2 inh inactive and KCNQ2 inh baseline -0.46.
OCCC1CN(Cc2cccn2-c2cccnc2)CCN1CCc1ccccc1 (configuration not stated) was read as KCNQ2 inh inactive and KCNQ2 inh baseline -0.03.
Screening CCCCNC(=S)NNC(=O)c1ccncc1 returned KCNQ2 inh inactive and KCNQ2 inh baseline -0.06.
`Cc1ccc(S(=O)(=O)NCC(=O)NCC(=O)NC(C)c2ccccc2Br)cc1C` (configuration not stated) gave KCNQ2 inh inactive and KCNQ2 inh baseline 0.9.

Among those listed so far, these contain an aryl methoxy group.
COc1cc(CNC2CCCC2)cc(OC)c1OC was read as KCNQ2 inh inactive and KCNQ2 inh baseline 1.33.
`COc1ccc(Cl)cc1S(=O)(=O)NCc1cccs1` gave KCNQ2 inh inactive and KCNQ2 inh baseline 1.33.
COc1ccc(S(=O)(=O)Nc2cccc(-n3cnnn3)c2)cc1OC was read as KCNQ2 inh inactive and KCNQ2 inh baseline 0.98.
Screening CCOC(=O)Cc1csc(NC(=O)COc2ccccc2OC)n1 returned KCNQ2 inh inactive and KCNQ2 inh baseline 0.51.
Screening COc1ccccc1C(CCNS(=O)(=O)c1ccc(C)cc1)c1ccco1 (configuration not stated) returned KCNQ2 inh inactive and KCNQ2 inh baseline 0.55.
`COc1ccc(-n2ccnc2SCC(=O)Nc2ccc(OC)cc2OC)cc1` gave KCNQ2 inh inactive and KCNQ2 inh baseline 0.17.
COc1ccc(CCN2C(=O)CC(C(N)=O)SC2=Nc2ccc(F)cc2)cc1OC (configuration not stated) was read as KCNQ2 inh inactive and KCNQ2 inh baseline 1.6.
For COc1cccc(-c2nnc(SCc3nc4ccccc4s3)n2C)c1 the results were KCNQ2 inh inactive and KCNQ2 inh baseline -1.66.
Screening COc1cc2c(cc1OC)C(c1ccc(C)cc1)NC(=O)C2 (configuration not stated) returned KCNQ2 inh inactive and KCNQ2 inh baseline -0.01.

Additional compounds
Cc1ccc(C(C(=O)NC(C)(C)C)N(Cc2cccs2)C(=O)c2ccc3c(c2)OCCO3)cc1 (configuration not stated) was read as KCNQ2 inh inactive and KCNQ2 inh baseline -0.92.
Screening Cc1ccccc1-n1nc2c(c1NC(=O)/C=C\c1ccc3c(c1)OCO3)CSC2 returned KCNQ2 inh -6.65* and KCNQ2 inh baseline -2.03*.
For CCc1c(C)nc(N2CCN(c3ccc(OC)cc3)CC2)[nH]c1=O the results were KCNQ2 inh inactive and KCNQ2 inh baseline 0.7.
Screening Cc1ccc2c(c1)-c1cc(C)nn1C(c1ccc3c(c1)OCO3)N2 (configuration not stated) returned KCNQ2 inh inactive and KCNQ2 inh baseline -0.63.
`NC(=O)c1ccc(-n2nnnc2SCC(=O)c2ccc(O)c(O)c2)cc1` gave KCNQ2 inh inactive and KCNQ2 inh baseline -0.26.
CSc1nc2ncc3c(n2n1)CC(C)(C)CC3=O was read as KCNQ2 inh inactive and KCNQ2 inh baseline 0.62.
COc1ccc(CCNC(=O)c2cc(S(=O)(=O)N3CCOCC3)cn2C)cc1OC was read as KCNQ2 inh inactive and KCNQ2 inh baseline 1.33.
Screening O=C(COC(=O)c1ccco1)Nc1nc2ccc([N+](=O)[O-])cc2s1 returned KCNQ2 inh inactive and KCNQ2 inh baseline -0.78.
`Cc1ccc(S(=O)(=O)c2nc(-c3ccco3)oc2SCC(N)=O)cc1` gave KCNQ2 inh inactive and KCNQ2 inh baseline 2.42.
Screening Cc1ccc(Cc2c(C)[nH]c(=S)[nH]c2=O)cc1 returned KCNQ2 inh inactive and KCNQ2 inh baseline 0.7.
COc1ccc(CC(=O)Nc2nc(C)cs2)cc1 was read as KCNQ2 inh inactive and KCNQ2 inh baseline 1.63.
Cc1nc(C)c(C(=O)N/N=C/c2ccco2)s1 was read as KCNQ2 inh inactive and KCNQ2 inh baseline -0.01.
Screening Cc1ccc(C2N(c3nccs3)C(=O)C3CCCN32)cc1 (configuration not stated) returned KCNQ2 inh inactive and KCNQ2 inh baseline 0.96.
Screening COc1ccnc(N2CCN(c3cccc(C(F)(F)F)c3)CC2)c1C#N returned KCNQ2 inh inactive and KCNQ2 inh baseline -0.68.
Screening CCN(CC)c1ccc(S(=O)(=O)N2CCOCC2)cc1NC(=O)CN1CCN(Cc2ccccc2)CC1 returned KCNQ2 inh inactive and KCNQ2 inh baseline -0.03.
For COC(=O)c1cc(Cl)c(NC(=O)c2cc(OC)c(OC)c(OC)c2)cc1OC the results were KCNQ2 inh inactive and KCNQ2 inh baseline 1.71.
`COc1cc(Cl)c(C)cc1NC(=O)CSc1nnc(CCC(=O)O)c(=O)[nH]1` gave KCNQ2 inh inactive and KCNQ2 inh baseline 1.24.
Screening N#C/C(=C\c1ccc(F)c(F)c1)C(=O)NC1CCCCC1 returned KCNQ2 inh inactive and KCNQ2 inh baseline -0.28.
Screening CC(CCc1ccccc1)NC(=O)CNC(=O)N1CC(=O)Nc2ccccc21 (configuration not stated) returned KCNQ2 inh inactive and KCNQ2 inh baseline 1.67.

A draw from above in order of SMILES length, rising.
COc1ccc(CC(=O)Nc2nc(C)cs2)cc1 was read as KCNQ2 inh inactive and KCNQ2 inh baseline 1.63.
Cc1nc(C)c(C(=O)N/N=C/c2ccco2)s1 was read as KCNQ2 inh inactive and KCNQ2 inh baseline -0.01.
Cc1ccc(C(C(=O)NC(C)(C)C)N(Cc2cccs2)C(=O)c2ccc3c(c2)OCCO3)cc1 (configuration not stated) was read as KCNQ2 inh inactive and KCNQ2 inh baseline -0.92.
